Bioassay records from PubChem.
Vaccinia stage: Vaccinia orthopox stage-specific inhibition | Vaccinia-infected cells, mCherry/Venus stage reporter fluorescence; active compounds read low; some inactives read as strong as hits | activity change (mCherry), % (concentration not given with the values) | actives 0.01% (n = 89,000) | AID 1053133;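 active = mCherry past -33% and 40 or more points under the early reporter, replicates agreeing; inconclusive = past -33% without that gap or agreement; tested in A549 cells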;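 also: scaled between vehicle wells and reference inhibitor wells; 23 nL library stock went into each well; one replicate is shown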
Vaccinia stage Venus: recorded beside Vaccinia stage, whose call it bears; activity change (Venus), %; measured here: Venus reporter, other viral stage;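 negative = less Venus signal; first of two replicates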
* marks the source's active call; other numbers are inactive results; u = inconclusive; x = no result given; & = joins results of further samples. This is a subset; the hit share may differ from the screen's.

#	compound	Vaccinia stage Venus	Vaccinia stage
1	CC=Cc1ccc2n(c1=O)C[C@@H]1[C@@H](CO)[C@H](C(=O)NCC3CC3)[C@H]2N1CCC(F)(F)F (mixture of isomers)	0.2	5.2
2	C[C@H]1CN([C@@H](C)CO)C(=O)c2cc(N(C)C)ccc2O[C@H]1CN(C)Cc1ccccc1	6.0	-0.3
3	CN(C)C(=O)c1ccc(-c2ccccc2[C@@H]2[C@H](C#N)N(C(=O)C3CCC3)[C@H]2CO)cc1	2.1	0.6
4	C[C@H]1CN([C@@H](C)CO)C(=O)c2cccc(NS(=O)(=O)c3cn(C)cn3)c2O[C@@H]1CN(C)S(=O)(=O)c1cccs1	-2.5	-4.3
5	COC(=O)c1cn(C[C@@H](Cc2ccccc2)NC(=O)Nc2ccccc2)nn1	-0.7	4.3
6	C[C@@H]1CN([C@H](C)CO)C(=O)c2cc(NC(=O)Nc3ccc(C(F)(F)F)cc3)ccc2O[C@@H](C)CCCCO[C@H]1CN(C)C(=O)c1ccccc1	1.0	-6.3
7	COc1ccc(-c2cnc3c(c2)C(=O)N([C@H](C)CO)C[C@@H](C)[C@@H](CN(C)Cc2ccc(C(=O)O)cc2)O3)cc1	23.2	11.7
8	C[C@@H]1CN([C@H](C)CO)C(=O)c2cc(-c3ccccc3)cnc2O[C@@H]1CN(C)C(=O)Cc1ccccn1	13.3	34.2
9	C[C@@H]1CN([C@@H](C)CO)C(=O)c2cc(NC(=O)c3ccncc3)ccc2O[C@H]1CN(C)S(C)(=O)=O	8.8	13.9
10	C[C@H](CO)N1C[C@H](C)[C@H](CN(C)Cc2ccncc2)Oc2ncc(/C=C/c3ccccc3)cc2C1=O	1.5&-4.0	6.9&0.4
11	C[C@@H]1CN([C@H](C)CO)C(=O)Cc2cc(NC(=O)C3CC3)ccc2O[C@@H]1CN(C)C(=O)Nc1ccc(C(F)(F)F)cc1	-0.9	2.3
12	C[C@@H]1CN([C@H](C)CO)C(=O)Cc2cc(NC(=O)Nc3ccccc3)ccc2O[C@H]1CN(C)S(=O)(=O)c1cn(C)cn1	10.3	10.2
13	O=C(c1cccc(F)c1)N1CC[C@@H]2[C@@H](CO)Nc3ccc(-c4ccccc4)cc3[C@@H]21	x	u
14	O=C(C[C@H]1CC[C@H](NC(=O)Nc2ccccc2F)[C@@H](CO)O1)NCc1ccc(F)cc1	2.3	6.4
15	C[C@@H]1CN([C@H](C)CO)C(=O)c2cc(NC(=O)CCC(F)(F)F)ccc2O[C@@H](C)CCCCO[C@H]1CN(C)S(C)(=O)=O	8.9	-4.0
16	CC(=O)N(C)C[C@@H]1Oc2cc(-c3cccc(F)c3)ccc2S(=O)(=O)N([C@H](C)CO)C[C@@H]1C	7.1	-19.1
17	O=C(CC1CC1)N1CC[C@@H]2[C@@H](CO)Nc3ccc(-c4ccccc4)cc3[C@@H]21	-10.8	-17.4
18	O=C(C1CCC1)N1CC(=O)N2[C@H](C1)[C@@H](c1ccc(C#CCc3ccccc3)cc1)[C@@H]2CO	-25.5	-21.7
19	C[C@@H]1CN([C@@H](C)CO)C(=O)c2cc(NC(=O)CCCN(C)C)ccc2O[C@@H](C)CCCCO[C@@H]1CN(C)S(=O)(=O)c1ccc(Cl)cc1	-8.2	18.9
20	C[C@@H]1CN([C@H](C)CO)C(=O)c2cc(C#Cc3cccnc3)cnc2O[C@@H]1CN(C)S(=O)(=O)c1ccccc1F	-7.8	-13.8
21	CO[C@H]1CN(C)C(=O)c2ccc(NC(=O)Nc3ccc(Cl)cc3)cc2OC[C@@H](C)N(C)C[C@@H]1C	-16.9	-19.3
22	CCC(=O)N[C@@H]1CC[C@@H](CC(=O)OC)O[C@@H]1CO	-3.4	-8.0
23	CO[C@H]1CN(C)C(=O)c2ccc(NC(=O)c3cc(C)on3)cc2OC[C@@H](C)N(C(=O)C2CC2)C[C@@H]1C	2.3	9.4
24	Cc1ccc(S(=O)(=O)Nc2ccc3c(c2)C(=O)N(C)[C@H]2CC[C@@H](CC(=O)O)O[C@@H]2CO3)cc1	2.3	-1.2
25	CC(C)CC#Cc1ccc([C@@H]2[C@@H](CO)N3C(=O)CN(C(=O)c4ccccn4)C[C@@H]23)cc1	-9.0	-8.0

Overlap with the part before: 5 entries, followed by the next part.
#	compound	Vaccinia stage Venus	Vaccinia stage
21	CO[C@H]1CN(C)C(=O)c2ccc(NC(=O)Nc3ccc(Cl)cc3)cc2OC[C@@H](C)N(C)C[C@@H]1C	-16.9	-19.3
22	CCC(=O)N[C@@H]1CC[C@@H](CC(=O)OC)O[C@@H]1CO	-3.4	-8.0
23	CO[C@H]1CN(C)C(=O)c2ccc(NC(=O)c3cc(C)on3)cc2OC[C@@H](C)N(C(=O)C2CC2)C[C@@H]1C	2.3	9.4
24	Cc1ccc(S(=O)(=O)Nc2ccc3c(c2)C(=O)N(C)[C@H]2CC[C@@H](CC(=O)O)O[C@@H]2CO3)cc1	2.3	-1.2
25	CC(C)CC#Cc1ccc([C@@H]2[C@@H](CO)N3C(=O)CN(C(=O)c4ccccn4)C[C@@H]23)cc1	-9.0	-8.0
26	O=C(C[C@H]1CC[C@H]2[C@@H](COC[C@@H](O)CN2C(=O)Nc2ccc(Cl)cc2)O1)NCC1CCCCC1	x	u
27	CCC(=O)N1C[C@H]2[C@@H](c3ccccc31)[C@@H](CO)N2C(=O)CC1CC1	-7.1	6.7
28	CCCc1cn(CC[C@H]2CC[C@H](NC(=O)C3CCCC3)[C@@H](CO)O2)nn1	-0.2	-12.1
29	C[C@@H]1CN([C@@H](C)CO)C(=O)Cc2cc(NS(=O)(=O)c3ccc(F)cc3)ccc2O[C@H]1CN(C)S(=O)(=O)c1cn(C)cn1	3.3	10.5
30	O=C1CN(Cc2ccc(F)cc2)C[C@H]2[C@@H](c3ccc(-c4ccccc4F)cc3)[C@@H](CO)N12	-17.2	-23.8
31	COCC(=O)N(C)C[C@H]1Oc2cc(C3=CCCC3)ccc2S(=O)(=O)N([C@H](C)CO)C[C@@H]1C	-5.4	9.8
32	CN1C(=O)c2cc(NC(=O)c3ccc4c(c3)OCO4)ccc2OC[C@@H]2O[C@H](CC(=O)O)CC[C@@H]21	16.0	15.7
33	COc1cccc(-c2ccc3c(c2)[C@H]2[C@H](CCN2S(=O)(=O)c2ccc(F)cc2)[C@H](CO)N3C)c1	-15.5	-20.9
34	CCC(=O)Nc1ccc2c(c1)C(=O)N(C)C[C@H](OC)[C@@H](C)CN(C(=O)c1cnccn1)[C@@H](C)CO2	3.4	13.2
35	COCC(=O)N1C[C@H](C)[C@@H](OC)CN(C)C(=O)c2cc(NC(=O)c3cc(C)on3)ccc2OC[C@@H]1C	11.9	14.3
36	C[C@@H]1CCCCO[C@@H](CN(C)C(=O)Nc2ccc(C(F)(F)F)cc2)[C@@H](C)CN([C@H](C)CO)C(=O)c2cc(NS(=O)(=O)c3ccc(Cl)cc3)ccc2O1	0.0	-3.9
37	C[C@H]1CN([C@@H](C)CO)S(=O)(=O)c2ccc(-c3cccc(C#N)c3)cc2O[C@H]1CN(C)CC1CC1	-18.2	-15.5
38	COc1cccc(CNC(=O)C[C@@H]2CC[C@H]3[C@@H](COc4ccc(NC(=O)c5cccs5)cc4C(=O)N3C)O2)c1	2.4	-8.9
39	COCC#Cc1ccc2c(c1)O[C@H](CN(C)Cc1cncnc1)[C@H](C)CN([C@H](C)CO)S2(=O)=O	13.7	26.8
40	CCCNC(=O)N(C)C[C@@H]1Oc2ncc(-c3ccc(C(=O)N(C)C)cc3)cc2C(=O)N([C@@H](C)CO)C[C@H]1C	-15.9	-17.9
41	COc1ccc(C#Cc2cnc3c(c2)C(=O)N([C@H](C)CO)C[C@H](C)[C@@H](CN(C)C(=O)Nc2cccc(OC)c2)O3)cc1	-2.0	0.5
42	C[C@H](CO)N1C[C@H](C)[C@H](CN(C)Cc2ccc(O)cc2)OCc2ccccc2-c2ccccc2C1=O	0.3	16.0
43	C[C@H](CO)N1C[C@H](C)[C@H](CN(C)Cc2ccc(C(=O)O)cc2)Oc2ccc(NC(=O)Nc3ccccc3)cc2CC1=O	-2.8	2.5
44	C[C@H](CO)N1C[C@H](C)[C@H](CN(C)CC2CC2)OCCCC[C@H](C)Oc2ccc(NC(=O)CCC(F)(F)F)cc2C1=O	-1.9	-13.0
45	CC=Cc1ccc2n(c1=O)C[C@@H]1[C@@H](CO)[C@H](C(=O)NCc3cc(F)cc(F)c3)[C@H]2N1S(C)(=O)=O (mixture of isomers)	1.2	-6.3
46	COCC#Cc1ccc2c(c1)O[C@H](CN(C)C(=O)C1CCOCC1)[C@H](C)CN([C@@H](C)CO)S2(=O)=O	5.8	5.8
47	N#C[C@@H]1[C@H](c2ccccc2)[C@@H](CO)N1C(=O)Cc1ccccc1	2.7	4.9
48	CC(C)CC#Cc1cnc2c(c1)C(=O)N([C@H](C)CO)C[C@H](C)[C@H](CN(C)C(=O)c1ccccc1)O2	-4.0	-2.6
49	O=C(C[C@@H]1C[C@@H]2c3cc(NS(=O)(=O)c4ccc(F)cc4)ccc3O[C@@H]2[C@@H](CO)O1)NCc1ccccn1	3.9	3.1
50	CNC[C@H]1Oc2cc(-c3ccccc3OC)ccc2S(=O)(=O)N([C@H](C)CO)C[C@@H]1C	10.8	-10.5

Values by screen from the entries so far.
Vaccinia stage for entries 39–43 → 26.8, -17.9, 0.5, 16.0, 2.5
Vaccinia stage Venus for entries 39–43 → 13.7, -15.9, -2.0, 0.3, -2.8

More entries follow:
#	compound	Vaccinia stage Venus	Vaccinia stage
51	C[C@@H]1CN([C@H](C)CO)C(=O)c2cc(C#CC(C)(C)O)cnc2O[C@H]1CN(C)C(=O)C1CCOCC1	9.7	26.6
52	COCC#Cc1ccc([C@@H]2[C@@H](CO)N3C(=O)CN(C(=O)c4cccnc4)C[C@@H]23)cc1	16.7	26.7
53	C/C=C/c1ccc([C@@H]2[C@@H](CO)N3C(=O)CN(C(=O)Nc4cccc(OC)c4)C[C@@H]23)cc1	x	u
54	CCCN1C[C@@H](C)[C@@H](OC)CN(C)C(=O)c2ccc(NC(=O)Nc3ccccc3F)cc2OC[C@@H]1C	-10.4	-9.7
55	O=C(Cc1ccccn1)NCC[C@@H]1CC[C@@H](NC(=O)Nc2ccc(F)cc2)[C@@H](CO)O1	-4.9	1.9
56	COc1cccc(NC(=O)N2C[C@H](O)COC[C@@H]3O[C@@H](CC(=O)N(C)C)CC[C@H]32)c1	15.3	5.1
57	C[C@@H]1CN([C@H](C)CO)C(=O)c2cc(-c3ccccc3F)cnc2O[C@H]1CN(C)C(=O)c1cnccn1	7.6	18.0
58	C[C@@H]1CN([C@@H](C)CO)C(=O)c2cc(-c3ccc(C#N)cc3)cnc2O[C@H]1CN(C)C(=O)Nc1ccc(C(F)(F)F)cc1	6.4	12.0
59	Cc1noc(C)c1S(=O)(=O)Nc1ccc2c(c1)CC(=O)N([C@@H](C)CO)C[C@H](C)[C@H](CN(C)S(=O)(=O)c1cn(C)cn1)O2	3.9	15.4
60	CN(C)CCCNC(=O)C[C@@H]1CC[C@@H]2[C@@H](COc3ccc(NC(=O)c4ccccc4F)cc3C(=O)N2C)O1	-6.9	-7.8
61	C[C@H]1CN([C@@H](C)CO)C(=O)c2cccc(NS(=O)(=O)c3cn(C)cn3)c2O[C@@H]1CN(C)CC1CC1	7.7	12.7
62	COc1cccc(C(=O)Nc2ccc3c(c2)OC[C@H](C)NC[C@@H](C)[C@H](OC)CN(C)C3=O)c1	6.6	1.1
63	Cc1noc(C)c1NC(=O)Nc1ccc2c(c1)C(=O)N([C@H](C)CO)C[C@@H](C)[C@H](CN(C)C(=O)Nc1ccccc1)OCCCC[C@@H](C)O2	17.5	18.6
64	C[C@@H](O)C#Cc1ccc([C@H]2[C@@H](CO)N3CCCCN(S(=O)(=O)Cc4ccccc4)C[C@@H]23)cc1	10.9	20.4
65	CN1C(=O)c2cc(NC(=O)c3cscn3)ccc2OC[C@@H]2O[C@H](CC(=O)NCc3ccc(Cl)c(Cl)c3)CC[C@H]21	4.6	-5.7
66	O=C(NCc1ccccc1F)[C@@H]1[C@@H](CO)[C@@H]2Cn3c(cccc3=O)[C@@H]2N1CC1CCCC1	3.9	-10.0
67	CC(C)C#Cc1cnc2c(c1)C(=O)N([C@H](C)CO)C[C@H](C)[C@@H](CN(C)C(=O)Nc1ccc(F)cc1)O2	-0.4	0.0
68	C[C@@H]1CN([C@@H](C)CO)C(=O)c2cc(C#CC3CCCCC3)cnc2O[C@@H]1CN(C)C(=O)NC1CCCC1	-26.4	-32.8
69	Cc1cccc(-c2ccc([C@@H]3[C@H]4CN(C(=O)CN5CCOCC5)CC(=O)N4[C@H]3CO)cc2)c1	-10.3	-6.5
70	C[C@@H]1CN([C@H](C)CO)C(=O)Cc2cc(N(C)C)ccc2O[C@@H]1CN(C)C(=O)NC1CCCCC1	12.8	9.9
71	CCC(=O)N(C)C[C@H]1Oc2ncc(C#CC3(O)CCCC3)cc2C(=O)N([C@H](C)CO)C[C@H]1C	8.4	17.5
72	Cc1noc(C)c1NC(=O)NCC[C@H]1CC[C@H](NC(=O)c2ccccc2)[C@H](CO)O1	-0.3	8.4
73	COc1ccc(-c2ccc3n(c2=O)C[C@H]2[C@H](CO)[C@@H](C(=O)N(C)C)N(CC4CCCC4)[C@@H]32)cc1	-13.8	-17.1
74	C[C@@H]1CCCCO[C@@H](CN(C)S(=O)(=O)c2ccccc2)[C@H](C)CN([C@@H](C)CO)C(=O)c2cc(NS(C)(=O)=O)ccc2O1	12.9	24.6
